Screening data (PubChem)
RGS16-Gao = regulators of human RGS16-Galphao interaction; bead-based flow cytometry RGS16-Galphao binding, fluorescence; actives lie on both sides; AID 1441; 220,000 compounds, 0.38% hits; O15492+P09471; binding response (% of control), % at 10 µM;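 active = below 25% or above 175%, edge rows of some plates excepted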;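 also: Galphao activated by GDP with aluminum fluoride before binding; 100% = wells without compound and 0% = beads without RGS; some results beyond the cut were filed as inactive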
HSV replic up = increases HSV replication in cells; 220,000 compounds, 0.005% hits; maximum fold increase; HSV replication augmentation in cells, fold increase; AID 1956;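 active = peak rise of 1.5-fold or more in the series; tested in PC3 cells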;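 also: first round at 10 µM; read as green reporter fluorescence; hits show the peak of a series up to 25 µM; 1 = signal of infected wells without compound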
GALR2 ag = activates the human galanin receptor 2. O43603. GALR2-expressing cells, agonist activation read-out. activation, %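 (tested at 5 µM)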. 140,000 compounds, 0.48% hits. AID 803;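 active = above mean plus 3 SD of all compounds, about 5% in these data, not always enough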;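 also: 0% = vehicle buffer wells and 100% = reference agonist at full effect; tested in CHO reporter cells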
PKD1 inh = blocks activity of human protein kinase D1. Q15139. PKD1 kinase fluorescence polarization assay. inhibition, %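 (about 10 µM by stock and volumes)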. 200,000 compounds, 0.056% hits. AID 797;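 active = inhibition of 50% or more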;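 also: controls were vehicle for no effect and a reference inhibitor for full effect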
Target sequence (Q15139 whole entry, looked up): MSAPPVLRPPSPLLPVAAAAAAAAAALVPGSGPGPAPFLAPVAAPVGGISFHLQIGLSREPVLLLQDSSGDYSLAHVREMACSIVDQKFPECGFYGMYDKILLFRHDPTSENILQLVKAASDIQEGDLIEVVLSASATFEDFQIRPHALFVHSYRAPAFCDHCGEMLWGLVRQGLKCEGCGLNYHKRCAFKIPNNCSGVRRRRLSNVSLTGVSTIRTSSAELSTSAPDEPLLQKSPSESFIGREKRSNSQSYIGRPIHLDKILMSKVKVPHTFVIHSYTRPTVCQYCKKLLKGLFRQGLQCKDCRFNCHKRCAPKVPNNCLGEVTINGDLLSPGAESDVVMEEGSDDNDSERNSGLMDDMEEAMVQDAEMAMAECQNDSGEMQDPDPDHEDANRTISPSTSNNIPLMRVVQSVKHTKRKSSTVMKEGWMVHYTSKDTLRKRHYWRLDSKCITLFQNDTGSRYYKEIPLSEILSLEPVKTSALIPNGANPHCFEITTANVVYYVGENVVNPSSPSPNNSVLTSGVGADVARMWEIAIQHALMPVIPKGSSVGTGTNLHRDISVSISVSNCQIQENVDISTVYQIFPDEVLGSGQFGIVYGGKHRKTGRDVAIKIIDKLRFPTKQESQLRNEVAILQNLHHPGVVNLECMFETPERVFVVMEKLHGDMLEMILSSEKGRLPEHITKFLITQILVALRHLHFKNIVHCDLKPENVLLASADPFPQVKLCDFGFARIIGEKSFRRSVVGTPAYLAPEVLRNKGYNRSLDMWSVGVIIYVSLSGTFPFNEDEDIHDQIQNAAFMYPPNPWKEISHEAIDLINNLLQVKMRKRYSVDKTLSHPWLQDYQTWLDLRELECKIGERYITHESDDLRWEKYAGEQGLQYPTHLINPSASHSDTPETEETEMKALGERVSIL
INS promoter inh = TRM-6 insulin promoter activity inhibition | TRM-6 cells (human fetal islet line), insulin promoter-eGFP reporter, imaging; reporter expression induced with tamoxifen | inhibition, % at 2 µM | 130,000 compounds, 0.9% hits | AID 1273;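 active = inhibition above the mean plus 3 SD, with well images judged a real hit on visual review, cut at about 60% in these data, passing the limit was not always enough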
INS promoter inh cell count = recorded beside INS promoter inh, whose call it bears; normalized cell count, %; measured here: cell count, toxicity; reference of the scale not given here;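 cells exposed to compound for 48 h; stained nuclei by imaging scaled within each plate; lower means fewer cells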
HSV replic up primary fold = recorded beside HSV replic up, whose call it bears; fold increase; compound at 10 µM; measured here: primary screen fold increase 10 uM; tested in PC3 cells;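 GFP signal in the first replicate; 1 = infected wells without compound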
An asterisk follows results filed as active; i = inactive; . = no result given.

Below each SMILES – INS promoter inh cell count	GALR2 ag	INS promoter inh	RGS16-Gao	HSV replic up primary fold	HSV replic up	PKD1 inh
Cc1ccc(-c2ccc(/C=N/N3C(=O)C4C5C=CC(CC5)C4C3=O)o2)c([N+](=O)[O-])c1 (stereo not given)
 : 132	-3.5	23	101	0.92	i	-1
O=C(c1cnn2c(C(F)(F)F)cc(-c3ccccc3)nc12)N1CCOCC1
 : 103	-2.7	-44	179	0.66	i	-11
O=C(O)c1ccccc1SC1CC(=O)N(c2ccc3c(c2)OCO3)C1=O (stereo not given)
 : .	.	.	95	0.99	i	3
Cc1ccc(S(=O)(=O)N2C=CC(C(F)(F)F)=NCC2)cc1
 : 109	0.6	25	101	0.83	i	-4
COc1ccc(C(=O)Nc2ccc3nc(N4CCCCC4)cc(C)c3c2)c(OC)c1
 : 141	-0.7	-81	114	0.81	i	-7
CN(C)S(=O)(=O)c1cccc(NC(=S)N2CCCCC2CO)c1 (stereo not given)
 : 101	.	-7	103	0.95	i	0
COc1cc(-c2nc3cnccn3c2Nc2ccc(C)cc2)ccc1O
 : 69	-0.7	11	99	0.78	i	0
O=C(CN1CCC(NC(=O)c2ccc(Br)cc2)CC1)NCc1cccs1
 : .	.	.	108	0.79	i	2
Cn1cccc1C(=O)NC(=O)COC(=O)CNS(=O)(=O)c1ccc(Br)cc1
 : 124	-3.3	15	100	0.99	i	7
COC(=O)C1=C(Nc2ccc(C)cc2)C=C(C)C(C(=O)OC)C1c1ccc(F)cc1 (stereo not given)
 : 147	-0.2	67	109	0.94	i	4
COc1ccc(C(=O)NC(=S)Nc2ccc(S(=O)(=O)Nc3cc(C)on3)cc2)cc1OC
 : .	.	.	98	1	i	.
O=c1c2ccccc2c(/C=N/c2n[nH]c(CCCO)n2)c(O)n1-c1ccccc1Cl
 : 97	.	45	101	0.89	i	6
CCC1(C)Cc2c(sc3nc(SCC(=O)O)[nH]c(=O)c23)CO1 (stereo not given)
 : 147	-1.4	14	97	0.96	i	-11
O=C(C1CCCN(S(=O)(=O)c2ccccc2[N+](=O)[O-])C1)N1CCN(c2ccccc2)CC1 (stereo not given)
 : .	-0.9	.	99	1	i	-10
O=C(/C=C/c1ccccc1)c1ccc2c(c1)OCO2
 : .	.	.	98	0.97	i	.
CSc1ncccc1C(=O)N1CCCC(C(=O)c2ccc3ccccc3c2)C1 (stereo not given)
 : .	.	.	109	0.92	i	-1
CCn1c(SCC(=O)NC2CCS(=O)(=O)C2)nnc1-c1ccccc1 (stereo not given)
 : 37	.	38	55	0.98	i	-6
CCOc1cc(S(=O)(=O)NC2CCCCC2)ccc1F
 : 52	-3.0	-23	110	0.95	i	0
O=C(NCCCN1CCOCC1)c1ccc(NC(=O)C2COc3ccccc3O2)cc1 (stereo not given)
 : .	.	.	109	1.1	i	-3
Cc1nn(-c2nc(-c3ccco3)cc(C(F)(F)F)n2)c(C)c1Br
 : .	0.5	.	100	0.94	i	-5
COC(=O)c1ccc(/C=C/C(=O)c2cccc(OC)c2)cc1
 : 28	-0.5	-413	103	0.65	i	4
CN(C(=O)c1ccc2c(c1)SC1=NS(=O)(=O)CCN12)C(c1ccccc1)c1ccccc1
 : 92	0.2	18	122	0.87	i	-5
CCC(C)(C)NC(=O)C1CCN(c2nc(C)cc(C)n2)CC1
 : 103	0.1	7	106	1	i	-6
CCOC(=O)Cn1ccc(-c2ccccc2)c(C#N)c1=O
 : 51	.	10	91	1.1	i	-4
Nc1ccc2c(c1)OCCOCCOCCOCCOCCO2
 : .	.	.	105	0.99	i	4
CCNS(=O)(=O)c1ccc(CCC(=O)NC2CCCC2)cc1
 : 96	-0.4	24	115	1.1	i	11
On1c(-c2ccc(Cl)cc2)nc2ccccc21
 : .	.	.	104	1	i	-3
C/C(=N\NC(=S)Nc1ccc(C(C)C)cc1)c1ccc2c(c1)OCO2
 : .	.	.	99	0.97	i	2
CC1(C)OC2C(CO)OC(n3cnc4c(=S)nc[nH]c43)C2O1 (stereo not given)
 : .	.	.	96	1	i	.
O=C1CCc2cc(S(=O)(=O)NCCC(=O)N3CCN(c4cccc(Cl)c4)CC3)ccc2N1
 : 129	-1.8	-4	96	0.92	i	0

Part of the list above with just INS promoter inh and HSV replic up:
| canonical_smiles | INS promoter inh | HSV replic up |
| --- | --- | --- |
| CCC1(C)Cc2c(sc3nc(SCC(=O)O)[nH]c(=O)c23)CO1 (stereo not given) | 14 | i |
| O=C(C1CCCN(S(=O)(=O)c2ccccc2[N+](=O)[O-])C1)N1CCN(c2ccccc2)CC1 (stereo not given) | . | i |
| O=C(/C=C/c1ccccc1)c1ccc2c(c1)OCO2 | . | i |

Following part:
Below each SMILES – INS promoter inh cell count	GALR2 ag	INS promoter inh	RGS16-Gao	HSV replic up primary fold	HSV replic up	PKD1 inh
CC(=O)Nc1ccc(S(=O)(=O)N2CCN(CC(=O)N3CCOCC3)CC2)cc1
 : .	.	.	96	0.99	i	.
FC(F)(F)COc1nc(OCC(F)(F)F)nc(N2CCN(c3ccccc3)CC2)n1
 : 75	-1.5	0	108	1	i	0
Nc1cc(-c2nn[nH]n2)ccc1F
 : 114	-1.3	42	95	0.98	i	-6
Cc1cccc(OCc2nc(C#N)c(NCCN(C)C)o2)c1
 : 93	-2.2	20	100	.	.	-13
Cc1ccc(SCC(=O)Nc2cc(C)on2)cc1
 : 97	-1.2	26	97	0.94	i	-3
Cc1cc(NC(=O)c2ccc3c(c2)C(=O)N(C(C)(C)C)C3=O)no1
 : .	.	.	93	1	i	-1
CN(Cc1ccccc1)C(=O)c1[nH]cnc1C(=O)N[C@@H](CCCCNC(=O)OC(C)(C)C)C(=O)OC(C)(C)C
 : .	.	.	105	1.1	i	5
CCCCC(=O)Nc1cccc(C(=O)N/N=C/c2ccc(OC)cc2OC)c1
 : .	-1.4	.	57	1.1	i	3
COc1ccc(C(=O)C2CCCN(Cc3ccc(Sc4nncn4C)o3)C2)cc1F (stereo not given)
 : 87	.	30	122	0.91	i	-1
CC1=C(C#N)C(=O)NC(C)(C)C1
 : 86	-2.5	34	102	1.1	i	-5
CCOC(=O)C1=C(C)OC(N)=C(C#N)C1c1cccc(C)c1 (stereo not given)
 : .	.	.	98	1	i	-6
CCOc1cc2c(cc1OCC)C(c1ccccc1OC)OC(=O)C2 (stereo not given)
 : 74	-0.7	47	113	0.96	i	1
S=c1[nH]c(-c2ccc(Cl)cc2)cs1
 : 148	.	9	107	0.93	i	6
COC(=O)CCCC(=O)N1CCOCCN(C(=O)CCCC(=O)OC)CCOCC1
 : 95	-2.7	-11	104	0.9	i	14
CC(C)CN(CC(C)C)C(=S)Nc1ccc(Cl)cc1
 : 88	.	19	97	1	i	-7
CCCOc1ccc(OCCn2nc(C(=O)O)c3ccccc3c2=O)cc1
 : 156	.	-40	112	0.94	i	-13
CCn1c(-c2cc(C3CC3)nc3ccccc23)n[nH]c1=S
 : 98	-1.0	16	82	1.1	i	-11
Fc1ccc(NC(=S)N2N=CCC2c2ccccc2)cc1 (stereo not given)
 : 88	-1.6	30	98	0.99	i	-5
Cc1ccc(/C=C/C(=O)Nc2ccc(N(C)C)cc2)o1
 : 112	-2.3	31	47	0.92	i	4
COc1ccccc1NC(=O)CC1C(=O)NCCN1C(=O)Nc1ccccc1 (stereo not given)
 : 71	-0.8	0	114	0.96	i	1
COc1ccc(-c2cc(C(=O)NCc3ccco3)no2)cc1OC
 : 94	-2.0	-21	100	0.9	i	-7
Cc1ccc(C)c(NC(=O)CSc2nnc(-c3ccncc3)n2N)c1
 : 103	-1.1	10	105	1	i	3
COc1cc(OC)c(OC)cc1/C=C1/C(=O)N=C(N)N1C
 : .	.	.	106	0.96	i	-1
Cc1ccc(O)c(C(=O)c2cnn(C(=O)Cc3csc(C)n3)c2)c1
 : 102	-1.1	48	98	0.94	i	6
Cn1c(=O)n(Cc2ccc(Br)cc2)c2ccccc21
 : 76	.	-54	96	0.98	i	1
Oc1ccc(Cl)cc1C(C#Cc1ccccc1)N1CCOCC1 (stereo not given)
 : 107	-0.2	-22	108	0.94	i	-5
CCc1cc(=O)oc2cc(C)cc(OCC(C)=O)c12
 : .	.	.	106	0.85	i	.
Cc1nnc2c3ccccc3c(-c3cccc4ccccc34)nn12
 : .	0.0	.	102	0.84	i	-6
O=C(Nc1cccc(S(=O)(=O)NC2=NCCC2)c1)c1cc(-c2ccco2)nc2ccccc12
 : .	.	.	89	1	i	.
CCOC(=O)c1sc(=S)n(-c2ccc(Cl)cc2)c1C
 : 104	-0.9	7	101	1	i	6

Ordered by SMILES length (descending): part of the list above.
Below each SMILES – INS promoter inh cell count	GALR2 ag	INS promoter inh	RGS16-Gao	HSV replic up primary fold	HSV replic up	PKD1 inh
CCn1c(SCC(=O)NC2CCS(=O)(=O)C2)nnc1-c1ccccc1 (stereo not given)
 : 37	.	38	55	0.98	i	-6
CCC(C)(C)NC(=O)C1CCN(c2nc(C)cc(C)n2)CC1
 : 103	0.1	7	106	1	i	-6
Nc1ccc2c(c1)OCCOCCOCCOCCOCCO2
 : .	.	.	105	0.99	i	4

The list continues.
Below each SMILES – INS promoter inh cell count	GALR2 ag	INS promoter inh	RGS16-Gao	HSV replic up primary fold	HSV replic up	PKD1 inh
CN(C)C(CNC(=O)c1cccc(S(=O)(=O)N2CC3(C)CC2CC(C)(C)C3)c1)c1ccco1 (stereo not given)
 : 113	-0.8	-44	113	0.96	i	1
Cc1nc(-c2cc(-c3nc(-c4cc(C(F)(F)F)cc(C(F)(F)F)c4)no3)no2)cs1
 : .	.	.	100	1.1	i	.
Nn1c(SCC(=O)N2CCCc3ccccc32)nnc1-c1ccccc1
 : .	-1.0	.	101	0.9	i	1
N/C(=N\OC(=O)c1ccc2c(c1)OCO2)c1cccc([N+](=O)[O-])c1
 : .	.	.	89	0.75	i	1
O=C(O)c1ccc(CSc2nnc(COc3ccc(Cl)cc3Cl)o2)cc1
 : .	.	.	104	0.89	i	-2
C/C(=C\c1ccccc1)CN1CCN(c2cccc(Cl)c2)CC1
 : 139	-2.2	27	115	0.98	i	-2
O=c1oc2ccccc2cc1-c1csc(Nc2ccc(O)cc2)n1
 : .	.	.	104	0.6	i	2
CCc1ccc(S(=O)(=O)Nc2ccc(O)c3c(=O)cc(-c4ccccc4Cl)oc23)cc1
 : .	.	.	104	0.72	i	.
Nc1c(S(=O)(=O)c2cc(Cl)ccc2Cl)c2nc3ccccc3nc2n1CCN1CCOCC1
 : 52	0.5	5	106	0.63	i	-1
COc1cccc(-n2nnc3c(=O)n(CC(=O)Nc4cc(C)on4)cnc32)c1
 : 118	.	-26	102	1	i	4
O=C(c1ccc2c(c1)OCO2)n1nnc2ccccc21
 : 115	-1.3	-33	119	0.74	i	-4
COc1cccc(-n2nnc3c(=O)n(CC(=O)N4CCCc5ccccc54)cnc32)c1
 : 116	-1.9	-6	74	0.88	i	-2
COCCN(CCOC)C(=O)c1cc2sc3ccccc3c2s1
 : 56	-1.3	-100	94	0.85	i	-53
O=C(NCCCCCNC(=O)c1cccnc1)c1cccnc1
 : .	0.1	.	108	1	i	-2
CC1=C(c2ccccc2)[N+](=O)C2(CCCCC2)N1[O-]
 : .	.	.	100	0.98	i	-1
NNC(=O)c1cncn1-c1ccc(F)cc1
 : 97	.	-43	100	.	.	-4
O=C(COC(=O)c1cccc(S(=O)(=O)N2CCOCC2)c1)Nc1ncc(C(F)(F)F)cc1Cl
 : 111	-1.4	0	102	0.93	i	-2
O=C(NCCCN1CCCCCC1)c1ccc2c(c1)NC(=O)C(N1CCOCC1)S2 (stereo not given)
 : 115	-3.5	-29	101	0.97	i	-7
O=C(NC(=O)c1ccc(Cl)cc1)Nc1ccc(-c2cnco2)cc1
 : .	.	.	91	0.9	i	.
C=CCn1c(SCC(=O)NCCO)nc2sc(C)c(C)c2c1=O
 : 82	.	36	75	0.91	i	7
Cc1occc1C(=O)NNC(=O)c1ccccc1F
 : 129	.	-36	109	1	i	-1
COC(=O)c1ccc(CSc2nc3ccccc3s2)o1
 : 128	-1.4	-83	100	1.2	i	-3
COC(=O)c1ccc(NC(=O)COc2ccccc2OC)cc1
 : .	-1.9	.	102	0.99	i	-3
O=C(OCC(=O)c1ccccc1Br)c1ccccn1
 : 56	-1.1	-19	105	1.1	i	8
Cc1nc(C)c(-c2ccn(S(=O)(=O)c3ccc(Cl)cc3)n2)o1
 : .	.	.	103	0.95	i	.
CC12CCC(C(=O)NCCCN3CCOCC3)(C(Br)C1=O)C2(C)C (stereo not given)
 : .	.	.	96	1.1	i	.
O=C(Nc1nnc(-c2ccccc2)s1)c1cccc(S(=O)(=O)N2CCOCC2)c1
 : 109	-1.6	5	106	1	i	-10
Cc1nc(CS(=O)c2ccc(Cl)cc2)cc(N2CCOCC2)n1 (stereo not given)
 : 53	-1.9	31	96	1.1	i	-12
C/C(N)=C(/C#N)C(=O)COC(=O)C(c1ccccc1)c1ccccc1
 : 73	.	-83	97	1	i	-2
